Source: PubChem BioAssay
Sa growth inh = blocks Staphylococcus aureus growth | S. aureus RN4220 growth, OD600, 20 h, 42 °C; active compounds read low | relative growth, % (no concentration beside the values) | 170,000 compounds, 0.53% hits;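 active = growth at 42 °C up to 50% and 20 or more points under that at 30 °C, or under 10% at both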;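 also: 300 nL library stock went into each well; scaled to the means of positive and negative controls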
GIV-Gai inh = inhibitors of GIV GBA-motif binding to rat Galpha-i3 | P08753 | Galpha-i3/FITC-GIV peptide fluorescence polarization, 90 min; active compounds read low; scaled: aluminum fluoride 0%, vehicle 100% | percent of control (FP), % (concentration not given with the values) | 210,000 compounds, 0.42% hits | AID 1224905;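 active = replicate mean at 85% of control or lower, very high polarization wells dropped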;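 also: wells of about 15 µL received 100 nL stock; the first replicate is given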
Target sequence (P08753 whole entry, looked up): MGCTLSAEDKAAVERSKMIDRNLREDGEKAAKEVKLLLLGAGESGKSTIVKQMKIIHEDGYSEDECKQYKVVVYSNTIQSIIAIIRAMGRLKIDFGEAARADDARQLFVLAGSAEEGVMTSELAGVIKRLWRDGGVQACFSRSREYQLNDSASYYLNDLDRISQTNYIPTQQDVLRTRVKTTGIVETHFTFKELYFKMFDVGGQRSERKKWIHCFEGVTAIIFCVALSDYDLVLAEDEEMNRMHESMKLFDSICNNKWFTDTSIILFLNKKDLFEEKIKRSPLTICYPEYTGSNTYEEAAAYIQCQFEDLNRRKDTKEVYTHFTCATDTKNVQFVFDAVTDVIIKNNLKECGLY
HCMV NEC inh = inhibitors of HCMV UL50-UL53 nuclear egress complex interaction | HTRF UL50-UL53 interaction, normalized percent inhibition | inhibition, % (no concentration beside the values) | 190,000 compounds, 0.15% hits | AID 1918969;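 active = both replicates at 50% or more, plus weaker picks with an unusually low signal ratio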;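 also: stock transfer was 100 nL into about 20 µL; 0% = negative control wells and 100% = wells with untagged competitor protein; inactives centre near -12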
Sa growth inh second temp = also measured in Sa growth inh; calls as there; relative growth, %; measured here: growth at 30 °C;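 optical density after 20 h as mean of two plates; 100% = untreated growth and lower means inhibition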
* = called active by the depositor; / = not tested or not shown; & = joins results of further samples.

SMILES	Sa growth inh	Sa growth inh second temp	GIV-Gai inh	HCMV NEC inh
Cc1onc(-c2ccccc2)c1C(=O)Oc1ccccc1N1CCOCC1	102	94	95	-11
CC(C)(C)OC(=O)N1CCC(c2c(C(=O)NC3CCN(Cc4ccccc4)CC3)cnn2-c2cccc(F)c2)CC1	85	76	106	/
O=C(Oc1ccc(/C=C2\SC(=Nc3ccc4c(c3)OCO4)N(c3ccc4c(c3)OCO4)C2=O)cc1)N1CCOCC1	/	/	104	-12
O=C(Nc1cccc(C(F)(F)F)c1)c1csc(-c2ccncc2)n1	/	/	107	-9
O=C(CCn1cnc2onc(-c3ccc(F)cc3)c2c1=O)N1CCN(c2ccc(F)cc2)CC1	127	83	111	/
CCOC(=O)c1c(NC(=O)c2ccc(Cl)cc2Cl)sc(C(=O)Nc2ccccc2F)c1C	/	/	98	-19
O=C(CC1N=C2c3ccccc3N=C(SCc3ccc(Cl)cc3)N2C1=O)NCCc1ccccc1 (configuration not stated)	61	51	109	/
Nc1cccc(-n2nncc2-c2ccc(Cl)cc2)c1	90	100	/	22
CC(=O)NCCc1c[nH]c2ccc(OCC(O)CNC(C)C)cc12 (configuration not stated)	81	88	98	-17
O=C(CCCCCN1C(=O)CCC1=O)Nc1ccccc1	103	108	99	6
CCc1ccc(NC(=O)NCc2nc(-c3ccc(C)cc3)oc2C)cc1	/	/	103	-17
COc1ccc(/C=N/c2nc3ccccc3n2C)c2c(OC)cccc12	74	108	106	-8
Cc1ccc(CNC(=O)c2ccc3c(Cl)c4c(nc3c2)CCCC4)o1	103	92	108	-25
Cc1ccc(CNC(=O)COCc2cc(-c3ccc4c(c3)OCO4)on2)cc1	106	87	105	/
CCCCn1c(COc2ccccc2)nc2ccccc21	64	58	/	-13
O=C(CCS(=O)(=O)c1ccccc1)N(Cc1cccnc1)c1nc2ccc(Cl)cc2s1	125	92	102	/
Cc1cc(C)cc(OC(=O)c2cc(-c3ccc4c(c3)OCCO4)on2)c1	1.7*	9.3*	105&103	-7&-20
CCNC(=O)CN1C(=O)CSc2nc(C)cc(C)c21	114	92	104	/
O=C(CNc1ccc(S(=O)(=O)N2CCCC2)cc1)N1CCN(S(=O)(=O)c2ccccc2)CC1	94	95	/	-7
COc1ccc(-c2noc(CSc3ccc(-c4ccccc4)nn3)n2)cc1OC	/	/	111	4
CCC1CCC(N2CCN(c3ccc(Cl)cc3)CC2)CC1 (configuration not stated)	106	82	102	-10
CC1=C(C(=O)OCc2ccc(C)cc2)C(c2ccccc2C(F)(F)F)CC(=O)N1 (configuration not stated)	106	92	111	3
CCN(CC)CCCNC(=O)c1nn(-c2ccc(OC)cc2)c(=O)c2c1c1ccccc1n2C	101	87	103	-34
CCCc1nnc(NC(=O)c2cc(=O)c3cccc(C)c3o2)s1	/	/	94	-52
Clc1cccc(C2=NC(c3cccs3)=Nc3ccc(Br)cc3N2)c1	96	88	106	21
CCC(=O)N1c2ccccc2CC1C(=O)NCCCN1CCN(c2cccc(Cl)c2)CC1 (configuration not stated)	103	86	95	/
CCS(=O)(=O)n1nc(-c2ccco2)nc1N	111	76	94	10
Cn1c(SCc2nccn2Cc2ccc(Cl)cc2)nnc1C(F)(F)F	98	82	98	-9
CC(Oc1ccc(Cl)cc1)/C(N)=N/O (configuration not stated)	103	90	101	-28
Cc1cccc(Cc2c(C)nc3nc(SCc4ccccc4C)nn3c2C)c1	102	93	106	/
O=C(Oc1ccccc1F)N1c2ccccc2Sc2ccccc21	116	95	/	-10
Cc1nc(C(F)(F)F)ccc1C(=O)Nc1ccccc1N1CCOCC1	85	83	97	-18
CCOC(=O)c1nc(N2CCCC2)c2c(C)noc2n1	/	/	106	-30
CC(=O)Nc1ccc(S(=O)(=O)N2CCC(c3nnnn3-c3ccccc3)CC2)cc1	94	92	100	-3
Cc1nc(N(CCO)C2CCCCC2)c2nnn(Cc3ccccc3)c2n1	117	91	100	-8
COc1ccccc1CC1C(=O)Nc2ccccc21 (configuration not stated)	/	/	106	-20
C=CCn1c(=O)c(C2=NS(=O)(=O)c3ccccc3N2)c(O)c2ccccc21	102	101	106	-2
O=C(Nc1ccc(Cl)cn1)C1Cc2ccccc2C1	93	81	103	-31
O=C(Nc1cccc(Cl)c1)c1ccc(-n2nc(OCc3ccc(Cl)cc3)ccc2=O)cc1	/	/	109	-23
Cc1nc(-c2cnccn2)sc1C(=O)N(Cc1ccccc1)Cc1cccs1	87	82	99	-26

Entries of single compounds, quoted from the list. Order of values: Sa growth inh | Sa growth inh second temp | GIV-Gai inh | HCMV NEC inh
Entry for Clc1cccc(C2=NC(c3cccs3)=Nc3ccc(Br)cc3N2)c1 = 96 | 88 | 106 | 21
Entry for CCN(CC)CCCNC(=O)c1nn(-c2ccc(OC)cc2)c(=O)c2c1c1ccccc1n2C = 101 | 87 | 103 | -34
Entry for CC(Oc1ccc(Cl)cc1)/C(N)=N/O (configuration not stated) = 103 | 90 | 101 | -28
Entry for CCS(=O)(=O)n1nc(-c2ccco2)nc1N = 111 | 76 | 94 | 10
Entry for Cc1nc(-c2cnccn2)sc1C(=O)N(Cc1ccccc1)Cc1cccs1 = 87 | 82 | 99 | -26

Other structures
SMILES	Sa growth inh	Sa growth inh second temp	GIV-Gai inh	HCMV NEC inh
CCOC(=O)C(C)Oc1ccc2c(=O)c(-c3csc(C)n3)c(C(F)(F)F)oc2c1 (configuration not stated)	/	/	106	0
CC(CCc1ccccc1)NC(=O)C1=COCCO1 (configuration not stated)	115	93	/	-4
Cc1ccc(-c2c(C)n3c4c(=O)n(C)c(=O)n(C)c4nc3n2CCCO)cc1	79	94	108	25
COc1ccc2cc3c(nc2c1)N(S(=O)(=O)c1ccc(C(C)C)cc1)CC3	/	/	105	-12
CCN(Cc1ccccc1)C(=O)CN1C(=O)C2CC=CCC2C1=O (configuration not stated)	96	91	/	-29
CC1CC(C)CN(C(=O)Cn2nnc(-c3cccc(C(F)(F)F)c3)n2)C1 (configuration not stated)	70	94	/	-21
CCCCCn1c(=N)c(S(=O)(=O)c2ccc(C)cc2)cc2c(=O)n3cc(C)ccc3nc21	115	81	106	-44
CCOC(=O)C1CCN(C(=O)CCc2nc3ccccc3[nH]2)CC1	91	88	106	/
Cc1ccc(Cn2c(CO)cnc2SCC(=O)Nc2cccc(F)c2)cc1	104	83	100	/
O=C(CSc1nc2ccsc2c(=O)n1-c1ccc(Br)cc1)NCc1ccccc1	142	99	102	/
COC(=O)c1cc(S(=O)(=O)C(C)C)cs1	108	89	104	-5
COc1ccc(-c2cc(-c3nnc(N)o3)no2)cc1OC	121	98	111	-8
CCOc1ccc(OCCSc2nc3ccccc3n2CC(O)CO)cc1 (configuration not stated)	109	97	103	-13
CSCCCN1CCOCC1	101	112	103	-9
CC(=O)N1N=C(c2ccccc2)CC1c1ccc(F)cc1 (configuration not stated)	106	91	/	-15
O=C(c1ccccc1)C1CCN(C(=O)CSc2ccc(Cl)cc2)CC1	108	83	99	-5
CCOC(=O)CCC(=O)c1c(C(=O)OCC)[nH]c2ccc(Cl)cc12	/	/	104	-19
O=S(=O)(NCC(c1cccs1)S(=O)(=O)c1ccccc1)c1ccccc1 (configuration not stated)	98&104	96&85	100&101	-37
COc1ccccc1CNC(=O)CCc1c(C)nn(-c2ccc(N3CCCC3)nn2)c1C	104	91	99	/
O=C(Sc1ccc(Cl)cc1)c1cccnc1Oc1ccccc1	100	97	104	-6

Reformatted as labelled records: entries from further up.
> CC(CCc1ccccc1)NC(=O)C1=COCCO1 (configuration not stated)
- Sa growth inh: 115
- Sa growth inh second temp: 93
- GIV-Gai inh: /
- HCMV NEC inh: -4

> Cc1ccc(-c2c(C)n3c4c(=O)n(C)c(=O)n(C)c4nc3n2CCCO)cc1
- Sa growth inh: 79
- Sa growth inh second temp: 94
- GIV-Gai inh: 108
- HCMV NEC inh: 25

> COc1ccc2cc3c(nc2c1)N(S(=O)(=O)c1ccc(C(C)C)cc1)CC3
- Sa growth inh: /
- Sa growth inh second temp: /
- GIV-Gai inh: 105
- HCMV NEC inh: -12

The list continues:
SMILES	Sa growth inh	Sa growth inh second temp	GIV-Gai inh	HCMV NEC inh
CCOc1ccc(C(=O)N(CC#N)CC#N)cc1	99	86	101	-32
O=S(=O)(c1ccc2c(c1)CCN2)N1CCCC1	91	89	/	0
CCSCCOC(=O)C1=C(C)N(C)C(=O)NC1c1cc(Cl)c(O)c(OC)c1 (configuration not stated)	/	/	104	-16
COc1ccc(/C=C2\SC(=O)N(CCNC(=O)CC(C)(C)C)C2=O)cc1	84	89	/	-72
CN1C(C(=O)c2ccccc2)=C(N2CCOCC2)c2ccccc2S1(=O)=O	92	65	104	/
CCC1CCCCN1Cc1c(O)ccc2cc(-c3nc4ccccc4[nH]3)c(=O)oc12 (configuration not stated)	94	109	-42*	/
CCN1C(=O)/C(=N\N2CCOCC2)c2ccccc21	105	94	/	-68
O=c1/c(=C/c2ccc(Br)cc2)sc2nncn12	83	97	109	12
CC(C)Oc1cccc(NC(=O)C2CCN(S(=O)(=O)Cc3ccccc3)CC2)c1	99	87	99	-6
Oc1ccc(C2CC3CC2C2C=CCC32)cc1 (configuration not stated)	16	17	/	-12
CS(=O)(=O)N1CCN(c2ncccc2C(F)(F)F)CC1	108	90	105	-32
CCOC(=O)C1CCN(C(=O)CN2c3ccc(C(C)C)cc3-c3ccccc3S2(=O)=O)CC1	107	96	96	9
COc1ccc(NC(=O)Cn2c(=O)n(CCC(=O)NCc3ccccc3OC)c(=O)c3ccccc32)cc1Cl	114	99	107	-39
CC(C(=O)NCCc1ccc(F)cc1)N1CCN(S(=O)(=O)c2ccc3c(c2)OCCCO3)CC1 (configuration not stated)	126	98	/	9
Cc1ccc(-c2cc(Nc3ccccc3F)nc(C)n2)cc1	/	/	102	5
CCCS(=O)(=O)N1CCN(Cc2noc(CCC(=O)N(C)Cc3ccccc3)n2)CC1	/	/	102	-2
O=C(NCc1ccc2c(c1)OCO2)c1cc(-c2cccnc2)nc2ccc(Cl)cc12	/	/	112	-6
COc1cccc2c1OC1(C)NC(=O)NC2C1C(=O)Nc1cccc(Cl)c1 (configuration not stated)	106	92	109	-1
O=C(CN1CCOc2ccccc21)NC1CCCCCCC1	96	104	102	-11
CC(C)Cn1cnc2nc(CSc3ccccc3NC(=O)COc3cccc(F)c3)cc(=O)n21	/	/	104	-37
OCC1CCCN(C(=S)Nc2ccc(Nc3ccccc3)cc2)C1 (configuration not stated)	98	82	104	-32
CCOC(=O)CCn1c(=O)c2cccn2c2cccnc21	103	87	105	-12
CCc1ccc(-c2[nH]c3c(c2-c2sc(C)c(C(=O)OC)c2O)c(=O)[nH]c(=O)n3C)cc1	98	82	157	-7
Cc1cccc(N2CCN(C(=O)C3CCN(S(=O)(=O)c4ccc5c(c4)oc(=O)n5C)CC3)CC2)c1C	101	90	102	-20
c1ccc(N(c2ccccc2)c2nc(-n3ccnc3)nc(-n3ccnc3)n2)cc1	88	84	99	-15
O=c1c2sccc2n2c(SCc3ccccc3)nnc2n1CCc1ccccc1	/	/	100	-14
CCCN1Cc2cccc(C(=O)NCc3ccc(F)cc3)c2C1=O	97	81	99	-36
O=C(Nc1ccc(-c2nnc3n2CCCCC3)cc1)c1ccccc1F	102	95	109	/
Cc1nc2ccccn2c1C(=O)c1ccccc1	105	90	/	-27
Cc1ccc(-n2c(O)c(C=NCCN3CCOCC3)c3ccccc3c2=O)cc1C	87	60	/	-43
COc1ccc(CNC(=O)c2cc(-c3cccc(Cl)c3)on2)cc1	115	75	98	-24
COC(=O)c1c(N)sc2c1CCC2	100	99	/	8
CCOc1ccc(C2C(C(=O)OC)=C(C)NC3=C2C(=O)CC(c2ccc(OC)c(OC)c2)C3)cc1OC (configuration not stated)	/	/	107	-41
Cc1cc2ccccc2n1CCNC(=O)c1cccc(Cl)c1	113	92	101	-9
CC(C(=O)NCc1ccccc1)n1cc(S(=O)(=O)N2CCCC2)ccc1=O (configuration not stated)	107	92	/	-3
CC(O)(c1ccccc1)C(C)(O)c1ccccc1 (configuration not stated)	96	87	/	-4
CCS(=O)(=O)N(CC(=O)Nc1sc(C)c(C)c1C(N)=O)Cc1ccc(F)cc1	101	100	104	6
Cc1ccccc1Cn1c2ccccc2c2cnn(CC(=O)NCC(C)c3ccccc3)c(=O)c21 (configuration not stated)	103	88	105	-12
COc1ccc(Cl)cc1NC(=O)CSc1cc(C)[nH]c(=O)n1	126	80	97	/
COC(=O)c1ccc2c(c1)N(Cc1cc(C)ccc1C)C(=O)CS2	/	/	103	0
Cc1ccc(-c2csc(-c3cc4c([nH]c3=O)CC(c3ccccc3)CC4=O)n2)cc1 (configuration not stated)	83	88	102&106	-12&-20
Cc1cc(C)c2c(/N=N/N3CCCCCC3)[nH]nc2n1	100	79	105	/
CCC(=O)N1CCc2cc(S(=O)(=O)NC(C)C)ccc21	109	83	103	/
COc1ccc(C(F)(F)F)cc1NC(=O)c1nc2nc(C)cc(C(F)F)n2n1	100	88	104	-16
Cc1cccc(CN2CCCn3nc(C(=O)NC4CCS(=O)(=O)C4)cc3C2=O)c1 (configuration not stated)	/	/	100	-3
Nc1ccc2c(c1)C1(OCCO1)C(=O)N2	83	90	99	-23

Three compounds out of the list above, arranged by the value under Sa growth inh, high to low.
| SMILES | Sa growth inh |
| --- | --- |
| CCC(=O)N1CCc2cc(S(=O)(=O)NC(C)C)ccc21 | 109 |
| COc1ccc(C(F)(F)F)cc1NC(=O)c1nc2nc(C)cc(C(F)F)n2n1 | 100 |
| Cc1ccc(-c2csc(-c3cc4c([nH]c3=O)CC(c3ccccc3)CC4=O)n2)cc1 (configuration not stated) | 83 |
